NOMO-1 viab: NOMO-1 AML cell viability reduction, primary screen, STK33 inhibitor project, CellTiter-Glo luminescence; actives 7.5% (n = 37,000); inhibition, % (no concentration beside the values); NOMO-1 AML viability, 72 h;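 active = most replicates above 80%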;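 also: wells of about 30 µL received 25 nL stock; 0% = median of vehicle wells and 100% = reference inhibitor level; the first replicate is given; inactives centre near 10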
Active calls of the source: *. This is a subset. The share of hits here may be higher or lower than overall.

SMILES | NOMO-1 viab
Cc1c(NC(=O)CN(c2ccc3c(c2)OCCO3)S(C)(=O)=O)c(=O)n(-c2ccccc2)n1C | 5
COC(=O)c1ccccc1NC(=O)CSC1=NC(c2ccccc2)CC(=O)N1 (configuration not stated) | 7
C[C@H](CO)N1C[C@H](C)[C@H](CN(C)Cc2ccc(Cl)c(Cl)c2)Oc2ccc(NS(C)(=O)=O)cc2C1=O | 17
C[C@H](CO)N1C[C@H](C)[C@H](CN(C)C(=O)Nc2ccc3c(c2)OCO3)Oc2c(NC(=O)Nc3ccc(C(F)(F)F)cc3)cccc2C1=O | 115*
COc1ccc(CN(C)C[C@H]2Oc3ccc(NC(=O)Cc4ccccc4)cc3CC(=O)N([C@H](C)CO)C[C@H]2C)cc1 | 17
c1coc(CNc2nc3ccccc3n2CCN2CCOCC2)c1 | 6
C[C@@H]1CN([C@H](C)CO)C(=O)Cc2cc(NC(=O)NC3CCCCC3)ccc2O[C@@H]1CN(C)CC1CCCCC1 | 20
CNC[C@@H]1Oc2c(NC(=O)C3CC3)cccc2C(=O)N([C@H](C)CO)C[C@H]1C | 16
O=C(Nc1ccccc1)c1cc(S(=O)(=O)Nc2cccnc2)cs1 | 22
C[C@@H]1CN([C@H](C)CO)C(=O)c2cccc(NS(=O)(=O)c3cn(C)cn3)c2O[C@@H]1CN(C)Cc1ccc(Oc2ccccc2)cc1 | -11
C[C@@H]1CCCCO[C@@H](CN(C)C(=O)c2ccccc2)[C@@H](C)CN([C@H](C)CO)C(=O)c2cc(NC(=O)Nc3ccc4c(c3)OCO4)ccc2O1 | 0
COc1ccc(OC)c(NC(=O)CSc2nc3sc(C)c(C)c3c(=O)n2-c2ccccc2)c1 | 29
CCN(CC(=O)Nc1cccc(C(C)=O)c1)S(=O)(=O)c1ccc(Cl)cc1 | -3
COc1ccccc1OCC(=O)Nc1cccc(-c2nnc(-c3ccco3)o2)c1 | -8
Cc1cc(C(=O)Nc2cccc3c2O[C@H](CN(C)C)[C@@H](C)CN([C@H](C)CO)C3=O)n(C)n1 | 2
C[C@@H]1CCCCO[C@@H](CN(C)C(=O)Cc2ccccc2)[C@@H](C)CN([C@H](C)CO)C(=O)c2cc(NC(=O)Nc3cccc4ccccc34)ccc2O1 | -8
C[C@H]1CN([C@@H](C)CO)C(=O)c2cccc(NC(=O)Nc3ccc(F)cc3)c2O[C@H]1CN(C)Cc1ccc(-c2ccccc2)cc1 | 26
C[C@@H]1CN([C@H](C)CO)C(=O)c2cccc(NC(=O)c3nc4ccccc4s3)c2O[C@H]1CN(C)Cc1ccc(Cl)c(Cl)c1 | 91*
COc1ccc(S(=O)(=O)N(C)C[C@H]2Oc3ccc(NC(=O)Cc4ccccc4)cc3CC(=O)N([C@@H](C)CO)C[C@@H]2C)cc1 | 0
C[C@H]1CN([C@@H](C)CO)C(=O)Cc2cc(NS(C)(=O)=O)ccc2O[C@H]1CN(C)Cc1ccc(C(F)(F)F)cc1 | 10
O=[N+]([O-])c1ccc2nc(CSc3nc4ccccc4[nH]3)[nH]c2c1 | 27
COc1ccc(CN(C)C[C@H]2Oc3ccc(NC(=O)NC(C)C)cc3CC(=O)N([C@@H](C)CO)C[C@H]2C)cc1 | 5
CC(C)NC(=O)Nc1ccc2c(c1)CC(=O)N([C@@H](C)CO)C[C@@H](C)[C@@H](CN(C)C(=O)Nc1ccc(F)cc1)O2 | 21
O=C(Nc1cccnc1)C1CC(c2ccccc2O)=NO1 (configuration not stated) | 18
O=C(CSc1n[nH]c(-c2ccc(Cl)cc2)n1)Nc1ccc(Br)c(Cl)c1 | 35
CC1=C(CC/C(C)=C/C(=O)O)[C@@]2(C)CCCC(C)(C)C2CC1 (some centres not stated) | 11
C[C@@H]1CN([C@@H](C)CO)C(=O)Cc2cc(NS(=O)(=O)c3ccc(Cl)cc3)ccc2O[C@@H]1CN(C)S(=O)(=O)c1cn(C)cn1 | 17
Cc1ccc(C(=O)NCCc2ccc(S(N)(=O)=O)cc2)o1 | -6
C[C@@H]1CN([C@H](C)CO)C(=O)Cc2cc(NS(C)(=O)=O)ccc2O[C@@H]1CN(C)S(C)(=O)=O | -15
C[C@H]1CN([C@@H](C)CO)C(=O)c2cccc(NS(C)(=O)=O)c2O[C@@H]1CN(C)S(=O)(=O)c1ccccc1 | -4
C[C@H](CO)N1C[C@H](C)[C@@H](CN(C)Cc2ccccc2)Oc2ccc(NS(=O)(=O)c3ccccc3)cc2C1=O | 6
O=C(c1cnc2n(c1=O)CCS2)N(c1ccccc1)C1CCCCC1 | 19
Cc1ccc(Cl)cc1NC(=O)CC(C(=O)O)N(C)C (configuration not stated) | 3
COc1ccc(-n2nnnc2SCC(=O)Nc2cc(C)c(Cl)cc2OC)cc1 | 92*
C[C@@H]1CN([C@H](C)CO)C(=O)Cc2cc(NC(=O)Cc3ccccc3)ccc2O[C@H]1CN(C)C(=O)NC1CCCCC1 | 8
CC(=O)COc1cc(OCC(C)=O)c2c(C)cc(=O)oc2c1 | 24
CC(C)NC(=O)Nc1ccc2c(c1)C(=O)N([C@H](C)CO)C[C@H](C)[C@H](CN(C)S(=O)(=O)c1ccc(F)cc1)OCCCC[C@@H](C)O2 | 35
CCN(C(=S)Nc1ccc(C)cc1)c1ccccc1 | 11
C[C@@H]1CN([C@H](C)CO)C(=O)Cc2cc(NC(=O)Nc3ccc(F)cc3)ccc2O[C@@H]1CN(C)S(=O)(=O)c1cn(C)cn1 | 20
COc1ccc(CN2C(=O)C(O)(CC(=O)c3ccc(Cl)s3)c3ccccc32)cc1OC (configuration not stated) | 109*
C[C@@H]1CN([C@@H](C)CO)C(=O)c2cccc(NC(=O)c3ccncc3)c2O[C@H]1CN(C)Cc1ccc(-c2ccccc2)cc1 | 43
C[C@H]1CN([C@@H](C)CO)C(=O)c2cc(NC(=O)Nc3ccc4c(c3)OCO4)ccc2O[C@@H]1CN(C)C(=O)Nc1ccccc1 | -5
Cc1ccc(S(=O)(=O)Nc2ccc3c(c2)C(=O)N([C@@H](C)CO)C[C@@H](C)[C@@H](CN(C)C)O3)cc1 | 23
CS(=O)(=O)N(CC(=O)Nc1ccc(I)cc1)c1ccc(Cl)cc1Cl | 4
Cc1ccc(OCC(=O)Nc2ccc3oc(-c4cccnc4)nc3c2)c(C)c1 | 32
C[C@H](CO)N1C[C@H](C)[C@@H](CN(C)S(=O)(=O)c2cn(C)cn2)Oc2c(NC(=O)C3CCOCC3)cccc2C1=O | 3
Cc1ccc(NC(=O)COc2ccccc2)c(NC(=O)c2ccco2)c1 | -12
COc1ccc2c(OC)ccc3c2c1C=CC3=O | 11
COc1ccc(C(=O)NCc2occc2C(=O)O)cc1 | -16
COC(=O)c1cccc(NC(=O)CN(c2ccc(F)c(Cl)c2)S(C)(=O)=O)c1C | 106*
COc1ccc(S(=O)(=O)Nc2cccc3c2O[C@H](CN(C)S(=O)(=O)c2c(C)noc2C)[C@@H](C)CN([C@H](C)CO)C3=O)cc1 | -1
CCn1c(SCC(=O)Nc2sc3c(c2C#N)CCCC3)nnc1-c1cccc(Cl)c1 | 6
C[C@@H]1CN([C@@H](C)CO)C(=O)c2cc(NC(=O)Cc3cn(C)c4ccccc34)ccc2O[C@@H]1CN(C)Cc1ccc(-c2ccccc2)cc1 | 113*
C[C@H]1CN([C@@H](C)CO)C(=O)c2cccc(NC(=O)C3CCCCC3)c2O[C@H]1CN(C)Cc1ccc(C(=O)Nc2ccccc2N)cc1 | 127*
CC(=O)Nc1ccc(NC(=O)CN(c2cccc(Br)c2)S(C)(=O)=O)cc1 | 43
CC(C)NC(=O)Nc1ccc2c(c1)CC(=O)N([C@@H](C)CO)C[C@H](C)[C@H](CN(C)S(C)(=O)=O)O2 | 19
COc1ccc(O)c(-c2cnc(=S)[nH]c2-c2cc(OC)ccc2OC)c1 | 6
C[C@@H]1CN([C@H](C)CO)C(=O)Cc2cc(NC(=O)Nc3ccc(C(F)(F)F)cc3)ccc2O[C@@H]1CN(C)S(=O)(=O)c1ccc(Cl)cc1 | 15
CC(C)NC(=O)Nc1cccc2c1O[C@H](CN(C)C(=O)NC(C)C)[C@@H](C)CN([C@@H](C)CO)C2=O | 25
C[C@@H]1CN([C@H](C)CO)C(=O)Cc2cc(NC(=O)C3CCCCC3)ccc2O[C@@H]1CN(C)C | 4

Next structures.
SMILES | NOMO-1 viab
COC(=O)/C=C1/NCC(OC(=O)c2ccc(C(C)(C)C)cc2)CNC1=O (configuration not stated) | 51
COc1ccc(NC(=O)N(C)C[C@@H]2Oc3ccc(NS(=O)(=O)c4ccc(C)cc4)cc3C(=O)N([C@H](C)CO)C[C@@H]2C)cc1 | -13
O=C(CSc1nc(O)cc(=O)n1-c1ccccc1)Nc1ccccc1Cl | -21
O=C(NCc1ccccn1)c1ccc(Cl)c(S(=O)(=O)N2CCOCC2)c1 | -3
COc1ccc(NC(=O)N(C)C[C@H]2Oc3c(NC(=O)CCCCCC(=O)Nc4ccccc4N)cccc3C(=O)N([C@@H](C)CO)C[C@@H]2C)cc1 | 24
O=C(Nc1ccccc1)c1cc([N+](=O)[O-])ccc1NCc1cccnc1 | 34
S=C(NCc1ccco1)Nc1cccnc1 | -12
CC(=O)N1C(=N)S/C(=C\c2cc3ccccc3nc2Sc2ccccc2)C1=O | 7
C[C@H](CO)N1C[C@H](C)[C@H](CN(C)Cc2ccc3c(c2)OCO3)Oc2c(NS(=O)(=O)c3ccc(Cl)cc3)cccc2C1=O | 9
NC(=O)C1CCN(C(=O)CSc2nc3ccccc3o2)CC1 | 16
C[C@H](CO)N1C[C@H](C)[C@@H](CN(C)C(=O)Nc2ccccc2)Oc2c(NS(C)(=O)=O)cccc2C1=O | 28
Cn1c(SCC(=O)Nc2cc(Cl)c(Cl)cc2Cl)nnc1-c1ccccc1 | 5
CC(C)NC(=O)N(C)C[C@@H]1Oc2ccc(NC(=O)NC3CCCCC3)cc2CC(=O)N([C@H](C)CO)C[C@H]1C | 0
C[C@@H]1CN([C@@H](C)CO)C(=O)Cc2cc(N(C)C)ccc2O[C@@H]1CN(C)S(=O)(=O)c1cn(C)cn1 | -2
CCC1(C)Cc2c(sc3nc(SC)nc(SCC(=O)OC)c23)CO1 (configuration not stated) | -14
Cc1noc(C)c1NC(=O)N(C)C[C@H]1Oc2ccc(NC(=O)NC(C)C)cc2C(=O)N([C@H](C)CO)C[C@H]1C | 15
Cc1noc(C)c1NC(=O)N(C)C[C@H]1Oc2c(NC(=O)Nc3ccc(C(F)(F)F)cc3)cccc2C(=O)N([C@H](C)CO)C[C@@H]1C | -1
Cc1ccc(S(=O)(=O)Nc2ccc3c(c2)C(=O)N([C@@H](C)CO)C[C@@H](C)[C@H](CN(C)Cc2ccc(C(F)(F)F)cc2)O3)cc1 | 118*
C[C@H](CO)N1C[C@H](C)[C@H](CN(C)Cc2ccc(C(F)(F)F)cc2)Oc2c(NC(=O)C3CCCCC3)cccc2C1=O | 59
Cc1ccc(S(=O)(=O)N(C)C[C@H]2Oc3c(NC(=O)Nc4c(C)noc4C)cccc3C(=O)N([C@H](C)CO)C[C@@H]2C)cc1 | -3
O=C(Cn1cnc2sc(-c3ccccc3)cc2c1=O)Nc1ccccc1 | -14
CC(C)(C)C1CCc2c(sc(NC(=O)CN3CCOCC3)c2C#N)C1 (configuration not stated) | 2
C[C@H](CO)N1C[C@H](C)[C@@H](CN(C)Cc2ccc(C(=O)O)cc2)Oc2ccc(NC(=O)Cn3cnnn3)cc2C1=O | 34
Cc1ccc(OCC(=O)Nc2cccc(-c3nc4cc(Cl)ccc4o3)c2C)cc1C | 15
C[C@@H]1CN([C@@H](C)CO)C(=O)c2cccc(NC(=O)Nc3ccc4c(c3)OCO4)c2O[C@H]1CN(C)Cc1ccc(Cl)c(Cl)c1 | 102*
C[C@@H]1CN([C@H](C)CO)C(=O)c2cccc(N(C)C)c2O[C@@H]1CN(C)Cc1ccc(C(=O)O)cc1 | -4
COC(=O)c1ccc(NC(=O)CSc2nnc(-c3ccc(Br)cc3)o2)cc1 | -6
Cc1ccc2c(c1)c1c(n2CC(O)CN2CCOCC2)C(=O)CCC1 (configuration not stated) | 2
COc1ccc(NC(=O)N(C)C[C@H]2Oc3ccc(NC(=O)C4CCCCC4)cc3C(=O)N([C@@H](C)CO)C[C@H]2C)cc1 | -4
CC[N+](C)(CC)Cc1ccccc1 | 7
CCOc1ccc(Cl)cc1S(=O)(=O)n1cnc2cc(C)c(C)cc21 | 15
CCN1C2=C(C(=O)CCC2)C(c2cccc(O)c2)C2=C1CCCC2=O | -1

Sorted by SMILES length (rising): 14 of the compounds above
SMILES | NOMO-1 viab
CC[N+](C)(CC)Cc1ccccc1 | 7
Cc1ccc2c(c1)c1c(n2CC(O)CN2CCOCC2)C(=O)CCC1 (configuration not stated) | 2
CCOc1ccc(Cl)cc1S(=O)(=O)n1cnc2cc(C)c(C)cc21 | 15
CCN1C2=C(C(=O)CCC2)C(c2cccc(O)c2)C2=C1CCCC2=O | -1
COC(=O)c1ccc(NC(=O)CSc2nnc(-c3ccc(Br)cc3)o2)cc1 | -6
Cc1ccc(OCC(=O)Nc2cccc(-c3nc4cc(Cl)ccc4o3)c2C)cc1C | 15
C[C@@H]1CN([C@H](C)CO)C(=O)c2cccc(N(C)C)c2O[C@@H]1CN(C)Cc1ccc(C(=O)O)cc1 | -4
Cc1noc(C)c1NC(=O)N(C)C[C@H]1Oc2ccc(NC(=O)NC(C)C)cc2C(=O)N([C@H](C)CO)C[C@H]1C | 15
C[C@H](CO)N1C[C@H](C)[C@@H](CN(C)Cc2ccc(C(=O)O)cc2)Oc2ccc(NC(=O)Cn3cnnn3)cc2C1=O | 34
C[C@H](CO)N1C[C@H](C)[C@H](CN(C)Cc2ccc(C(F)(F)F)cc2)Oc2c(NC(=O)C3CCCCC3)cccc2C1=O | 59
Cc1ccc(S(=O)(=O)N(C)C[C@H]2Oc3c(NC(=O)Nc4c(C)noc4C)cccc3C(=O)N([C@H](C)CO)C[C@@H]2C)cc1 | -3
C[C@@H]1CN([C@@H](C)CO)C(=O)c2cccc(NC(=O)Nc3ccc4c(c3)OCO4)c2O[C@H]1CN(C)Cc1ccc(Cl)c(Cl)c1 | 102*
Cc1noc(C)c1NC(=O)N(C)C[C@H]1Oc2c(NC(=O)Nc3ccc(C(F)(F)F)cc3)cccc2C(=O)N([C@H](C)CO)C[C@@H]1C | -1
Cc1ccc(S(=O)(=O)Nc2ccc3c(c2)C(=O)N([C@@H](C)CO)C[C@@H](C)[C@H](CN(C)Cc2ccc(C(F)(F)F)cc2)O3)cc1 | 118*

High-throughput results: PubChem BioAssay, Broad Institute
